Bioassay records deposited in PubChem BioAssay by National Center for Advancing Translational Sciences (NCATS).
Six1-Eya2 blk = Six1/Eya2 interaction inhibition; Q15475+O00167; AlphaScreen GST-Six1/His-Eya2 binding, biochemical; active compounds read low; control for the full effect not named in the record; activity change, % (test concentration not listed); actives 0.56% (n = 360,000); in the data active = activity change below about -65%; inconclusive = about -30% to -65%; inactive = above about -30%; note: % is set by controls: 0 for no effect and ±100 for the full control effect
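Compounds are tested against tagged Six1 and Eya2 proteins bridged by glutathione donor and nickel acceptor beads; after a one-hour incubation at 37 °C without light, AlphaScreen emission is recorded.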
PINK1 modulator = changes PINK1 expression | PINK1 immunofluorescence, high-content cytometry, 24 h | Potency, µM (top dose mostly 76.6 µM), inactives show at the highest dose activation (PINK1 increase), most hits filed as activators | actives 0.2% (n = 410,000); active = well fitted activation curve with a large enough effect; inconclusive = small, poorly fitted or top-dose-only effect; inactive = flat fitted curve, though single readings scatter; cell line not stated here;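 note: potency is the fitted concentration of half-maximal effect; % of control where 0% means no effect; nearly all actives have a fitted effect of over 65% in size; a mitochondrial uncoupler was the plate control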
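Readout is PINK1 immunofluorescence, quantified alongside mitochondrial, cell and nuclear markers by laser-scanning microplate cytometry. Cells from a stable line were exposed to compound titrations (5 concentrations) for 24 hours, with CCCP controls.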
TRPML1 inh = human mucolipin-1 channel inhibition; Q9GZU1; TRPML1-inducible cells, Ca2+ dye fluorescence, FDSS; active compounds read low; inhibition of EC80 agonist-evoked calcium signal; activity change, negative = inhibition, % (test concentration not listed); actives 0.02% (n = 390,000); in the data active means activity change below about -50%; inconclusive means about -30% to -50%; inactive means above about -30%;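 note: stimulus is agonist 54-4 at its EC80 concentration; % is set by controls: 0 for no effect and ±100 for the full control effect; compound concentration not given in the record; the text of the record puts the active cut at -80%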
Target sequence (Q9GZU1 whole entry, looked up): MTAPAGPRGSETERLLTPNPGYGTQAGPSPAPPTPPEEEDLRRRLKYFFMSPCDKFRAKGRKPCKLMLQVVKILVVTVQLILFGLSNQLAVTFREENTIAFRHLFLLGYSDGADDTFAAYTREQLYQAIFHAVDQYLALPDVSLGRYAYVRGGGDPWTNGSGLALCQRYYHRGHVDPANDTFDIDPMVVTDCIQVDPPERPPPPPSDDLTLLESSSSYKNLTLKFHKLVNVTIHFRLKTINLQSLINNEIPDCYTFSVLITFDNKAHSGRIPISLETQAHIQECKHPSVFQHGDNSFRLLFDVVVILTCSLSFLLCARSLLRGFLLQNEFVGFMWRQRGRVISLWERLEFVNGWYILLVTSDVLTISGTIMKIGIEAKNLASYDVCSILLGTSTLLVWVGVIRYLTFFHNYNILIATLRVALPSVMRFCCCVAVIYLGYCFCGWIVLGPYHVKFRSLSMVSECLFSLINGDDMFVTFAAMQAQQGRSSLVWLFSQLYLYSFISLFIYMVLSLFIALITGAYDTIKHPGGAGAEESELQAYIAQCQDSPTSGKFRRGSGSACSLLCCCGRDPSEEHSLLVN
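Tet-induced TRPML1-DL cells loaded with Ca8 no-wash calcium dye were read kinetically on FDSS. Compound addition was followed by EC80 agonist 54-4 (4 uM final); inhibition was read over 110 s.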
CtBP-E1A blk = inhibitors of CtBP/E1A interaction; AlphaScreen GST-E1A/His-CtBP binding, 1536-well; active compounds read low; control for the full effect not named in the record; activity change, % (no concentration beside the values); actives 0.49% (n = 340,000); AID 651724; in the data active means activity change below about -65%; inconclusive means about -30% to -65%; inactive means above about -30%; note: % is set by controls: 0 for no effect and ±100 for the full control effect
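GST-E1A and His-tagged CtBP (125 nM each as 5X stock) were preincubated with pin-transferred compound for 2 h at 37 °C in the dark, then glutathione donor and nickel acceptor beads were added for 1 h before AlphaScreen reading.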
TRPML1 ag = human mucolipin-1 channel agonism | TRPML1-expressing cells, Ca2+ dye fluorescence, FDSS; host cell line not named in the record; reference of the full effect not given here | actives 0.12% (n = 410,000) | activation, % (test concentration not listed) | Q9GZU1 | AID 624414; in the data active = activation above about 50%; inconclusive = about 30% to 50%; inactive = below about 30%; note: 0% is about no effect; the text of the record puts the active cut at 80%
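In this qHTS format, compounds were pin-transferred onto Ca8-dye-loaded TRPML1-DL cells induced with Tet overnight, and intracellular Ca2+ fluorescence was recorded kinetically for 110 s after a 10 s baseline. A subsequent 4uM final 54-4 (EC80) addition followed by a second 110 s read served as the antagonist phase.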
D2 ag = human D2 receptor agonism in beta-arrestin assay | DiscoveRx PathHunter D2 beta-arrestin, luminescence, 90 min; 100% = 57 uM dopamine signal | activation, % (no concentration beside the values) | actives 0.084% (n = 360,000); in the data active = activation above about 40%; inconclusive = about 15% to 40%; inactive = below about 15%; note: compound concentration not given in the record; the text of the record calls up to 30% inactive
Target sequence (P14416 whole entry, looked up): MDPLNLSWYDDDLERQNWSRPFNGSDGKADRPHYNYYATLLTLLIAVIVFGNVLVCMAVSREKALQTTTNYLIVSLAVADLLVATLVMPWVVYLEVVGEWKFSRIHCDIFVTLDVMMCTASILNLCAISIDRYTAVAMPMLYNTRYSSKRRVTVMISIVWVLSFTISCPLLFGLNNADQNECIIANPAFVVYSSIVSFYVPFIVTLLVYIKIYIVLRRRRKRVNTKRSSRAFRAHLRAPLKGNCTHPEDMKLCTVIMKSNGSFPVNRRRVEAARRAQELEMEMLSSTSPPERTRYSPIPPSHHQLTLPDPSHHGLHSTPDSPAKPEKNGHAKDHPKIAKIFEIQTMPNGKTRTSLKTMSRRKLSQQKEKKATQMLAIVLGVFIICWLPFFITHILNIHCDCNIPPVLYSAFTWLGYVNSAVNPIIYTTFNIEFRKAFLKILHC
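DiscoveRx PathHunter D2 beta-arrestin cells (2,100/well) attached overnight, then compound-stimulated 90 min at 37 C in HBSS/10 mM HEPES/0.1% Tween-20 buffer; beta-galactosidase complementation read by luminescence after 1 h at ambient temperature. Dopamine 57 uM final (EC100) as control.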
* marks the source's active call; other numbers are inactive results; ? = inconclusive; . = no result given; & = joins results of further samples; [ ] = remark or other dose.

SMILES	Six1-Eya2 blk	PINK1 modulator	TRPML1 inh	CtBP-E1A blk	TRPML1 ag	D2 ag
CN1C(=S)SC(/[N+]([O-])=C\c2ccco2)C1(C)C (stereo not given)	0	-1.1%	27	3	0.2	-1.6
O=C(O)c1coc2ccccc12	3	0.3%	31	-1	-0.8	0.2
Cc1ccc(-c2c(C)c(-c3ccc(F)cc3)nc(N)c2C#N)o1	1	16%	-21	6	2.0	-1.0
COc1ccc(NC(=O)c2oc3ccccc3c2C)c(OC)c1	-1	-6.0%[38.3 µM]	-2	4	2.0	-2.6
COc1ccc(OC)c(/C=C/C(=O)OCC(=O)N2C(C)CCCC2C)c1 (stereo not given)	-67*	1.1%	21	-94*	0.6	0.1
O=C1NC2(CCCCC2)N(C(=O)c2ccccc2)C2=C1CCCC2	-5	2.5%	20	9	0.1	-5.2
Cc1nc2nc(SCC(=O)O)nn2c(C)c1Cc1ccccc1Cl	-3	2.9%	-21	-1	-0.3	-3.2
COc1ccccc1-n1c(SCC(=O)N2CCCCC2)nc2cccnc21	7	-0.4%	12	1	-0.9	-2.3
Oc1ccc(NCc2ccc(OCc3ccccc3)cc2)cc1	-21	0.9%&15%	-20&-9	?	0.8&2.2	40*
CCOC(=O)N1CCN(C(=O)c2cc(COc3cccc(C(F)(F)F)c3)on2)CC1	4	-0.5%	3	-2	2.0	-1.6
CCCCCNc1nc(NCCCO)c(C#N)c2c1CN(C)CC2	-4	-2.5%	11	12	0.6	-0.5
O=C(CC1Sc2ccccc2NC1=O)Nc1cccc(C(=O)O)c1 (stereo not given)	-23	-0.1%	2	0	-0.7	-4.4
Cc1ccc(C(=O)N/C(=C/c2ccccc2)C(=O)NC(Cc2ccccc2)C(=O)O)cc1 (stereo not given)	1	0.9%	1	-8	-0.6	-0.7
Oc1cc(O)c2c(c1)O[C@H](c1ccc(O)c(O)c1)[C@@H](O)C2	-11	0.8%	-8	-3	-0.1	-0.2
CCCCCSc1nc2sc3c(c2c(=O)n1-c1ccc(OC)cc1)CCN(C(C)=O)C3	.	0.4%	40	.	2.8	.
Cc1ccc(NC(=O)c2ccc(S(=O)(=O)NCc3cccnc3)cc2)c(C)c1	11	6.6%	-8	-4	-1.3	1.7
CCOC(=O)N1CCN(C(=O)C2CCN(S(=O)(=O)c3cc(C)ccc3OC)CC2)CC1	-2	0.7%	4	2	-0.5	-2.0
O=C(c1ccncc1)N(c1ccc2oc3c(c2c1)CCCC3)S(=O)(=O)c1cccc([N+](=O)[O-])c1	0	29%	37	5	2.1	-0.8
COc1ccc(/C=C(/NC(=O)c2ccco2)C(=O)N2CCCCCC2)cc1OC	8	0.4%	-4	-2	0.9	2.6
O=C1C=C(c2ccc(O)cc2)C[C@@H](c2ccc(Cl)cc2)C1	-5	7.0%	-2	-20	1.9	1.7

Part of the list above in order of length of the SMILES, smallest number first:
SMILES	Six1-Eya2 blk	PINK1 modulator	TRPML1 inh	CtBP-E1A blk	TRPML1 ag	D2 ag
Oc1ccc(NCc2ccc(OCc3ccccc3)cc2)cc1	-21	0.9%&15%	-20&-9	?	0.8&2.2	40*
CCCCCNc1nc(NCCCO)c(C#N)c2c1CN(C)CC2	-4	-2.5%	11	12	0.6	-0.5
CN1C(=S)SC(/[N+]([O-])=C\c2ccco2)C1(C)C (stereo not given)	0	-1.1%	27	3	0.2	-1.6
COc1ccccc1-n1c(SCC(=O)N2CCCCC2)nc2cccnc21	7	-0.4%	12	1	-0.9	-2.3
Cc1ccc(-c2c(C)c(-c3ccc(F)cc3)nc(N)c2C#N)o1	1	16%	-21	6	2.0	-1.0
Oc1cc(O)c2c(c1)O[C@H](c1ccc(O)c(O)c1)[C@@H](O)C2	-11	0.8%	-8	-3	-0.1	-0.2
Cc1ccc(NC(=O)c2ccc(S(=O)(=O)NCc3cccnc3)cc2)c(C)c1	11	6.6%	-8	-4	-1.3	1.7
CCOC(=O)N1CCN(C(=O)C2CCN(S(=O)(=O)c3cc(C)ccc3OC)CC2)CC1	-2	0.7%	4	2	-0.5	-2.0
Cc1ccc(C(=O)N/C(=C/c2ccccc2)C(=O)NC(Cc2ccccc2)C(=O)O)cc1 (stereo not given)	1	0.9%	1	-8	-0.6	-0.7
O=C(c1ccncc1)N(c1ccc2oc3c(c2c1)CCCC3)S(=O)(=O)c1cccc([N+](=O)[O-])c1	0	29%	37	5	2.1	-0.8

Further entries follow:
SMILES	Six1-Eya2 blk	PINK1 modulator	TRPML1 inh	CtBP-E1A blk	TRPML1 ag	D2 ag
Cn1nc(C(F)(F)F)cc1-c1ccc(S(N)(=O)=O)s1	3	-0.1%	4	6	-0.1	0.6
CCOC(=O)c1cnc2ccc(C)cc2c1Sc1ccccc1C(=O)OC	-9	3.6%	66	9	1.7	-0.7
CCCCn1c(N)c(N(CCC(C)C)C(=O)C2=NN(c3cc(C)ccc3C)C(=O)CC2)c(=O)[nH]c1=O	2	-1.7%	11	-5	-0.4	-4.5
CCCOc1ccc(/C=C/C(=O)NC2CCCCC2)cc1	5	15%	20	9	0.0	14
O=C1CN(C(=O)CSc2nnc(Nc3ccccc3)s2)c2ccccc2N1	-8	-1.4%	-12	-5	1.3	1.3
CCOc1ccc(-n2c(=O)c3c(C)c(C)sc3n(CC(=O)N(CC)Cc3ccccc3)c2=O)cc1	.	1.6%	30	.	5.2	.
Cc1cc(S(=O)(=O)Nc2ccc(C(=O)NCCCN3CCCC3=O)cc2)ccc1F	-6	0.0%	31	6	0.9	-6.2
CSc1nc(C)[nH]c(=O)c1C#N	-2	1.3%	-24	-6	1.8	-0.6
CCOC(=O)C1(CCc2ccccc2)CCN(C(=O)c2cccc(C)n2)CC1	0	0.1%	4	.	0.7	-2.4
COc1cc(C(=O)NNC(=O)/C=C/c2ccco2)cc(OC)c1OC	2	0.2%	19	0	2.0	-4.1
C[C@H](CO)N1C[C@H](C)[C@H](CN(C)C(=O)Nc2ccc(F)cc2)Oc2c(NC(=O)c3ccc(-c4nccs4)cc3)cccc2C1=O	-5	1.0%	13	-16	-0.2	3.3
COc1ccc(-c2nc3c4c(ncn3n2)-c2ccccc2CC42CCCC2)cc1	2	9.3%	7	2	-0.2	-5.0
COc1ccc(CCNc2ncnc3c2cnn3-c2cc(Cl)ccc2C)cc1	.	0.3%	1	.	1.6	.
O=C1NCCc2cc3c(cc21)OCO3	3	2.9%	5	4	-0.4	1.1
Cc1oc(-c2cccc(Cl)c2)[n+]([O-])c1C	1	-1.2%	0	3	1.8	-3.2
CCCCCCn1c(NCC)nc2c1c(=O)n(C)c(=O)n2C	-2	4.4%	14	-7	-0.1	-1.2
CCOc1ccccc1NC(=O)CSc1nnc2[nH]c(=O)cc(-c3ccccc3)n12	.	-0.5%	4	.	3.8	.
CCC1NC(=O)c2cccnc2-n2c1nc1ccc(C)cc1c2=O (stereo not given)	3	0.9%	.	-12	.	-3.3
Cc1nc2ccccc2c(=O)n1NC(=O)COc1ccccc1	-2	8.9%[38.3 µM]	-4	-2	0.5	1.1
Cc1nn(Cc2ccc([N+](=O)[O-])cc2)c(=O)n1-c1ccccc1Cl	-4	0.9%	13	1	-0.6	-0.8
Cn1ccnc1Sc1ccc(C(N)=O)cc1[N+](=O)[O-]	-14	-0.4%	7	12	-0.2	-1.4
OC(CNCC1CCCCC1)COc1ccccc1 (stereo not given)	1	2.9%	8	1	-0.3	-1.0
CCN(Cc1ccncc1)C(=O)c1cc(COc2c(F)cccc2F)on1	4	-1.5%	-5	-8	0.5	-3.6
CC1(C)Cc2nc3sc4c(SCC(=O)NCc5ccco5)ncnc4c3cc2CO1	-17	19%	-16	-13	1.8	-3.2
CC(NC(=O)NC1CCCCC1)C(c1cccs1)N1CCN(Cc2ccccc2)CC1 (stereo not given)	-3	-0.4%	-9	-2	0.0	-2.1
CCOc1cc(-c2nc(-c3ccc(-c4ccc(C)cc4)nc3OC)no2)cc(OCC)c1OCC	.	1.6%	9	.	0.3	.
COc1cc(NC(=O)c2c(F)cccc2F)c(Cl)cc1Cl	-5	12%	15	.	2.4	0.2
Cc1ccccc1N1C(=O)C(Cl)=C(N2CCN(c3ccccc3)CC2)C1=O	-21	1.2%	13	-19	1.8	-2.1
CCOC(=O)C1OC1(c1ccccc1)c1ccccc1 (stereo not given)	1	1.9%	-4	9	1.0	1.9
COc1ccc(C(C)(NC(C)=O)c2nc(-c3cccc(NC(C)=O)c3)cs2)cc1 (stereo not given)	0	2.6%	.	6	-0.8	-0.4
COc1ccc(-c2nnc3sc(C4CCCCC4)nn23)cc1OC	-1	-1.3%	21	3	0.0	-1.2
CCn1c(=O)n(CC(=O)NC2CCCC(C)C2C)c(=O)c2ccccc21 (stereo not given)	3	0.1%	-7	6	0.2	-3.4
CCC(=O)N(Cc1cc2ccccc2[nH]c1=O)c1ccc(OC)cc1	-10	-2.0%	-15	-11	-0.6	-10
O=C(C1CCN(S(=O)(=O)c2cccc3nonc23)CC1)N1CCN(c2ccc(F)cc2)CC1	.	2.0%	-11	.	-0.8	.
NC(=O)CNC(=O)[C@@H]1CC2(CC(c3cccc([N+](=O)[O-])c3)=NO2)CN1C(=O)c1ccccc1 (stereo not given in full)	-2	-0.4%	-16	4	-0.5	-1.8
CC(=O)NC(CC(=O)OCC(=O)NCCc1ccccc1)c1ccccc1 (stereo not given)	-2	1.1%	16	2	-0.8	-5.3
O=C(NC1CCSc2ccccc21)c1ccccc1F (stereo not given)	-4	0.6%	0	-5	0.3	-0.4
CCOC(=O)Nc1ccc(S(=O)(=O)NC2CCCCC2)cc1	-6	-3.8%	6	3	1.1	4.3
CC(NC(=O)CN(C)CC(=O)Nc1ccc(Cl)c(C(F)(F)F)c1)c1ccccc1 (stereo not given)	4	-6.8%	-9	-3	0.7	-3.1
O=C(NCC(=O)N(CCN1CCOCC1)C(C(=O)NC1CCCC1)c1ccccc1)c1cccs1 (stereo not given)	-3	-0.8%	-9	-6	0.1	-3.1
CCCCN1C(=O)c2ccc(C(=O)Nc3c(N)n(CCCC)c(=O)n(C)c3=O)cc2C1=O	-15	-1.4%	9	3	0.0	-4.0
CCN(Cc1ccccc1)C(=O)CCS(=O)(=O)c1ccc2c(c1)NC(=O)CO2	-1	-1.2%	-1	0	-0.6	-4.8
CCC(Oc1ccccc1)C(=O)Nc1cc(-c2ccccc2F)nn1-c1ccccc1 (stereo not given)	.	5.9%	7	.	1.8	.
COc1ccc(C(=O)c2ccc(Br)cc2)c(OC)c1OC	27	-0.3%	10	2	2.1	4.5
CC(=O)Nc1cc(-c2ccc(F)cc2)cn2c(-c3ccc(F)c(Cl)c3)cnc12	-11	2.8%	.	-8	-0.1	-4.6
Cc1cccc(OCc2nnc(SCC(=O)Nc3cccc(C(=O)N4CCOCC4)c3)o2)c1C	1	0.7%	0	-4	-0.6	-3.6
Cc1ccc(C)c(NC(=O)CN(C)C(=O)CSCc2c(C)noc2C)c1	-1	-0.7%	3	3	-0.9	-4.6
O=C(OCc1cn(-c2ccc(Cl)cc2)nn1)c1ccccc1	17	0.6%	1	12	3.3	2.9
